# Vaccinia inh – blocks a specific stage of Vaccinia orthopoxvirus infection; Vaccinia-infected cells, mCherry/Venus stage reporter fluorescence; stronger effect = lower value; some inactives read as strong as hits; activity change (mCherry), % (concentration not given with the values); actives 0.01% (n = 89,000); AID 1053133;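 active = mCherry past -33% and 40 or more points under the early reporter, replicates agreeing; inconclusive = past -33% without that gap or agreement; tested in A549 cells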;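 note: scaled between vehicle wells and reference inhibitor wells; 23 nL library stock went into each well; one replicate is shown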
# Vaccinia inh Venus – also measured in Vaccinia inh; calls as there; activity change (Venus), %; measured here: Venus reporter, other viral stage;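 negative = less Venus signal; first of two replicates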
# The depositor's hits bear a star; ? = inconclusive; · = no result given. These rows are one share of the data; count on the stated rates, not on these rows.
compound	Vaccinia inh	Vaccinia inh Venus
C[C@H]1CN([C@@H](C)CO)C(=O)c2cc(/C=C/c3ccccc3)cnc2O[C@H]1CN(C)C	2.4	3.3
C[C@H]1CN([C@@H](C)CO)C(=O)c2cc(Br)cnc2O[C@@H]1CN(C)S(=O)(=O)c1ccccc1	3.2	-2.4
C/C=C/c1ccc2c(c1)O[C@H](CN(C)C(=O)Nc1cccc(F)c1)[C@H](C)CN([C@@H](C)CO)S2(=O)=O	-29.2	-24.1
Cc1ccccc1S(=O)(=O)N1C[C@@H](O)COC[C@H]2O[C@H](CC(=O)NCCc3ccccc3)CC[C@@H]21	9.5	-5.6
C[C@H](CO)N1C[C@H](C)[C@@H](CN(C)Cc2ccc(C(=O)Nc3ccccc3N)cc2)Oc2ccc(NS(=O)(=O)c3ccccc3)cc2CC1=O	15.7	7.6
C[C@H]1CN([C@@H](C)CO)S(=O)(=O)c2ccc(-c3cccc(F)c3)cc2O[C@H]1CN(C)C(=O)C1CC1	-29.0	-23.8
COCC(=O)N1CC[C@H]2[C@H](CO)Nc3ccc(-c4cccc(C#N)c4)cc3[C@H]21	14.8	6.8
CCCN(C)C[C@@H]1Oc2ncc(-c3cccc(C(F)(F)F)c3)cc2C(=O)N([C@H](C)CO)C[C@@H]1C	-30.5	-24.7
Cc1ccc(-c2ccc3c(c2)O[C@@H](CN(C)C)[C@H](C)CN([C@H](C)CO)S3(=O)=O)cc1	-19.9	-21.8
COc1ccc(NC(=O)Nc2cccc3c2O[C@H](CN(C)Cc2ccc(C(F)(F)F)cc2)[C@@H](C)CN([C@@H](C)CO)C3=O)cc1	-19.6	-10.9
C[C@@H]1CN([C@H](C)CO)C(=O)c2cc(NC(=O)C3CC3)ccc2O[C@@H]1CN(C)C(=O)Nc1cccc2ccccc12	6.3	14.3
COc1ccc2c3c([nH]c2c1)[C@@H](CO)N(Cc1ccccn1)CC31CCN(C(C)=O)CC1	14.8	10.3
O=C(C[C@@H]1CC[C@@H](NS(=O)(=O)c2ccc(F)cc2)[C@H](CO)O1)NC1CCCCC1	1.4	0.3
CN(C)C(=O)[C@@H]1[C@@H](CO)[C@@H]2Cn3c(ccc(-c4ccccc4F)c3=O)[C@H]1N2C(=O)c1ccccc1	28.9	20.4
O=C(Nc1cccc(F)c1)N[C@H]1CC[C@@H](CCNS(=O)(=O)c2cccc(Cl)c2)O[C@H]1CO	-16.5	-11.0
O=C(NCC[C@H]1CC[C@H](NS(=O)(=O)c2ccc(F)cc2)[C@H](CO)O1)c1ccccc1F	-2.0	7.1
COc1cccc(NC(=O)N(C)C[C@@H]2Oc3ncc(Br)cc3C(=O)N([C@@H](C)CO)C[C@H]2C)c1	23.3	21.2
C[C@H](CO)N1C[C@H](C)[C@@H](CN(C)C(=O)c2ccc(F)cc2)Oc2ncc(C3=CCCCC3)cc2C1=O	-34.0	-19.6
CN1CCN(C(=O)C[C@H]2CC[C@@H]3[C@H](COC[C@@H](O)CN3Cc3cccc(Cl)c3)O2)CC1	9.6	11.1
C[C@H]1CN([C@@H](C)CO)C(=O)CCCn2cc(nn2)CO[C@H]1CN(C)S(=O)(=O)c1ccccc1F	9.7	4.9
CS(=O)(=O)N1CCCCN2[C@H](CO)[C@@H](c3ccc(Br)cc3)[C@@H]2C1	25.9	-0.3
C[C@@H]1CCCCO[C@@H](CN(C)C(=O)Cc2ccccc2)[C@@H](C)CN([C@@H](C)CO)C(=O)c2cc(NS(=O)(=O)c3ccc(Cl)cc3)ccc2O1	-9.8	0.5
CCCNC(=O)C[C@@H]1CC[C@H]2[C@@H](COC[C@H](O)CN2C(=O)c2ccccn2)O1	15.3	3.7
CC(C)C#Cc1ccc2c(c1)O[C@H](CN(C)CC1CCOCC1)[C@@H](C)CN([C@H](C)CO)S2(=O)=O	?	·
CCCNC(=O)Nc1ccc2c(c1)C(=O)N(C)C[C@@H](OC)[C@@H](C)CN(C(=O)C1CCC1)[C@@H](C)CO2	-8.1	-8.7
CC(C)NC(=O)N(C)C[C@@H]1Oc2ccc(NC(=O)Cc3cn(C)c4ccccc34)cc2C(=O)N([C@@H](C)CO)C[C@H]1C	6.5	4.8
C[C@H](CO)N1C[C@H](C)[C@@H](CN(C)Cc2ccccc2C(=O)O)Oc2cc(-c3ccc(C(=O)N(C)C)cc3)ccc2S1(=O)=O	20.1	10.4
CC(=O)N(C)C[C@H]1Oc2cc(-c3ccc(F)cc3)ccc2S(=O)(=O)N([C@@H](C)CO)C[C@H]1C	-2.3	-8.4
Cc1ccc(S(=O)(=O)N(C)C[C@H]2OCCCC[C@H](C)Oc3ccc(NC(=O)CCCN(C)C)cc3C(=O)N([C@H](C)CO)C[C@H]2C)cc1	18.8	2.0
O=C(Nc1ccccc1)N1C[C@H]2[C@@H](c3ccccc31)[C@H](CO)N2Cc1ccc(F)cc1	6.9	4.6
O=C(C[C@@H]1CC[C@H]2[C@@H](COC[C@H](O)CN2Cc2ccc(Oc3ccccc3)cc2)O1)Nc1nccs1	?	·
C[C@@H](O)C#Cc1ccc2c(c1)O[C@@H](CN(C)Cc1ccncc1)[C@@H](C)CN([C@@H](C)CO)S2(=O)=O	-3.6	0.2
O=C(C[C@H]1C[C@@H]2c3cc(NC(=O)CC4CC4)ccc3O[C@@H]2[C@H](CO)O1)NCc1ccc2c(c1)OCO2	7.4	-0.5
CCCN1[C@@H]2Cn3c(ccc(-c4cccc(OC)c4)c3=O)[C@H]1[C@@H](C(=O)NCC)[C@@H]2CO	16.0	-2.9
CCCC#Cc1cnc2c(c1)C(=O)N([C@@H](C)CO)C[C@@H](C)[C@H](CN(C)C(=O)Cc1ccncc1)O2	7.1	7.6
C[C@H](CO)N1C[C@H](C)[C@@H](CN(C)S(=O)(=O)c2ccc(F)cc2)OCCCC[C@H](C)Oc2ccc(NC(=O)c3ccccc3)cc2C1=O	-5.8	-0.9
C[C@@H]1CN([C@@H](C)CO)S(=O)(=O)c2ccc(C#CC3CC3)cc2O[C@@H]1CN(C)C(=O)c1ccncc1	11.6	3.5
CC(C)C#Cc1cnc2c(c1)C(=O)N([C@@H](C)CO)C[C@H](C)[C@@H](CN(C)C(=O)Nc1ccccc1)O2	-4.5	-4.7
C/C=C/c1ccc([C@H]2[C@@H](CO)N(CC3CCCC3)C23CN(C(=O)CC)C3)cc1	-27.9	-14.4
C[C@H](CO)N1C[C@H](C)[C@H](CN(C)C(=O)Nc2cccc3ccccc23)Oc2ccc(NC(=O)NC3CCCCC3)cc2C1=O	-5.0	3.5
C[C@@H]1CN([C@@H](C)CO)C(=O)c2cc(NC(=O)Nc3cccc4ccccc34)ccc2O[C@@H](C)CCCCO[C@@H]1CN(C)C(=O)NC1CCCCC1	28.6	20.4
CCNC(=O)Nc1ccc2c(c1)C(=O)N(C)[C@@H]1CC[C@H](CC(=O)NC3CCCCC3)O[C@@H]1CO2	17.2	4.3
CC(C)NC(=O)N(C)C[C@H]1Oc2ccc(NS(=O)(=O)c3cccs3)cc2CC(=O)N([C@@H](C)CO)C[C@@H]1C	20.8	9.0
O=C([C@H]1[C@H](CO)[C@H]2Cn3c(ccc(C4=CCCC4)c3=O)[C@H]2N1Cc1nccs1)N1CCCCC1	4.5	4.2
C[C@@H]1CN([C@H](C)CO)C(=O)c2cc(NS(=O)(=O)c3ccc(F)cc3)ccc2O[C@@H]1CN(C)S(=O)(=O)c1ccc(F)cc1	-8.1	-4.5
COC(=O)C[C@@H]1CC[C@@H]2[C@H](COc3ccc(NC(=O)C4CC4)cc3C(=O)N2C)O1	-1.5	-4.4
C[C@H]1CN([C@@H](C)CO)C(=O)c2cc(NC(=O)Nc3ccc4c(c3)OCO4)ccc2O[C@H]1CN(C)C(=O)Nc1ccc(C(F)(F)F)cc1	-3.8	1.6
CC(C)CC#Cc1ccc([C@H]2[C@@H](CO)N3C(=O)CN(S(=O)(=O)c4cccc(F)c4)C[C@H]23)cc1	?	·
O=C(C[C@@H]1CC[C@H]2[C@@H](COC[C@@H](O)CN2C(=O)c2cc(Cl)cc(Cl)c2)O1)N1CCc2ccccc2C1	-23.4	-10.5
CN1C(=O)c2cc(NC(=O)Nc3ccccc3Cl)ccc2OC[C@H]2O[C@@H](CC(=O)NCCCN3CCOCC3)CC[C@@H]21	9.5	1.7
CCCNC(=O)C[C@@H]1C[C@@H]2c3cc(NC(=O)Nc4ccc(F)cc4)ccc3O[C@@H]2[C@H](CO)O1	7.4	5.8
COc1ccc(S(=O)(=O)N2CC[C@H]3[C@H](CO)Nc4ccc(-c5ccc(C#N)cc5)cc4[C@H]32)cc1	-1.9	4.2
C[C@@H]1CN([C@@H](C)CO)C(=O)c2cccc(NC(=O)c3nc4ccccc4s3)c2O[C@H]1CN(C)S(=O)(=O)c1cn(C)cn1	7.9	2.9
Cc1ccccc1S(=O)(=O)N1CCCCN2[C@H](CO)[C@H](c3ccc(-c4ccccc4)cc3)[C@@H]2C1	-15.2	-17.2
C[C@H](CO)N1C[C@H](C)[C@@H](CN(C)C(=O)Nc2ccccc2)Oc2ccc(NC(=O)Cn3cnnn3)cc2C1=O	10.3	1.0
CC=Cc1ccc2n(c1=O)C[C@H]1[C@H](CO)[C@@H](C(=O)OC)[C@@H]2N1CC1CCCCC1 (mixture of isomers)	-15.4	-11.7

# Following part
compound	Vaccinia inh	Vaccinia inh Venus
CCC(=O)N[C@H]1CC[C@@H](CC(=O)NCC2CC2)O[C@H]1CO	6.8	0.3
O=C(c1ccncc1)N1CC2(C1)[C@@H](c1ccccc1)[C@@H](CO)N2C(=O)CC1CC1	10.8	17.6
C[C@H](CO)N1C[C@H](C)[C@H](CN(C)Cc2ccc(C(=O)Nc3ccccc3N)cc2)Oc2ccc(NS(=O)(=O)c3ccccc3)cc2CC1=O	-2.0	-6.7
CCCN1C[C@H](C)[C@H](OC)CN(C)C(=O)c2ccc(NC(=O)Nc3cccc(F)c3)cc2OC[C@@H]1C	-1.5	1.5
C[C@@H]1CCCCO[C@@H](CN(C)S(C)(=O)=O)[C@H](C)CN([C@@H](C)CO)C(=O)c2cc(NS(=O)(=O)c3cn(C)cn3)ccc2O1	11.8	12.7
CC(C)(O)c1cn([C@@H]2C[C@@H]3O[C@@H](CO)CC[C@@H]3O[C@@H]2CCc2ccc(-c3ccncc3)cc2)nn1	13.8	3.8
O=C(C1CC1)N1CCCCN2[C@H](CO)[C@H](c3ccc(-c4ccncc4)cc3)[C@@H]2C1	21.0	22.6
O=C(C[C@H]1C=C[C@H](NC(=O)Cc2ccccn2)[C@H](CO)O1)NCCc1ccccc1	12.1	13.2
COc1ccc(NC(=O)N(C)C[C@@H]2Oc3c(NC(=O)NC4CCCCC4)cccc3C(=O)N([C@@H](C)CO)C[C@@H]2C)cc1	-2.4	3.4
O=C(NC[C@H]1CC[C@@H]2[C@@H](CN2Cc2ccc(Oc3ccccc3)cc2)O1)C1CCOCC1	-5.9	-3.6
C[C@H](NC(=O)C[C@@H]1C[C@@H]2c3cc(NS(C)(=O)=O)ccc3O[C@@H]2[C@@H](CO)O1)c1ccccc1	2.6	1.5
CCC(=O)N(C)C[C@@H]1Oc2cc(C#CCN(C)C)ccc2S(=O)(=O)N([C@@H](C)CO)C[C@@H]1C	12.1	5.9
C[C@H](CO)N1C[C@H](C)[C@H](CN(C)Cc2ccc3c(c2)OCO3)Oc2c(NC(=O)C3CCCCC3)cccc2C1=O	14.2	7.4
COC(=O)[C@@H]1[C@@H](CO)[C@@H]2Cn3c(ccc(-c4cccc(OC)c4)c3=O)[C@@H]2N1CC1CC1	-0.2	2.9
COc1ccc2c3c(n(C)c2c1)[C@H](CO)N(C(=O)C1CCCCC1)CC31CCN(C(=O)c2ccncc2)CC1	16.7	9.2
CO[C@H](CN(C)S(=O)(=O)c1ccccc1)[C@H](C)CN(Cc1ccccc1Cl)[C@H](C)CO	0.2	5.0

# Profiles, looked up by structure. Screens in order: Vaccinia inh, Vaccinia inh Venus
# COc1ccc(NC(=O)N(C)C[C@@H]2Oc3c(NC(=O)NC4CCCCC4)cccc3C(=O)N([C@@H](C)CO)C[C@@H]2C)cc1 is entered as -2.4, 3.4
# CO[C@H](CN(C)S(=O)(=O)c1ccccc1)[C@H](C)CN(Cc1ccccc1Cl)[C@H](C)CO is entered as 0.2, 5.0
# O=C(NC[C@H]1CC[C@@H]2[C@@H](CN2Cc2ccc(Oc3ccccc3)cc2)O1)C1CCOCC1 is entered as -5.9, -3.6

# The list goes on:
compound	Vaccinia inh	Vaccinia inh Venus
COc1ccc(NC(=O)N(C)C[C@@H]2Oc3c(NC(=O)C4CC4)cccc3C(=O)N([C@H](C)CO)C[C@H]2C)cc1	5.3	6.2
Cc1ccc(S(=O)(=O)N(C)C[C@H]2Oc3ccc(NC(=O)Nc4c(C)noc4C)cc3CC(=O)N([C@H](C)CO)C[C@H]2C)cc1	5.8	-5.2
C[C@H](O)C#Cc1ccc([C@@H]2[C@H]3CN(S(=O)(=O)Cc4ccccc4)CCCCN3[C@H]2CO)cc1	1.6	9.0
CCCC(=O)Nc1ccc2c(c1)C(=O)N(C)C[C@@H](OC)[C@H](C)CN(C)[C@@H](C)CO2	6.4	11.6
COCCOC(=O)N1C(=O)[C@@]2(c3cc(C#CCNC(N)=O)ccc31)[C@H](c1ccccc1OCCO)N1[C@H](c3ccccc3)[C@H](c3ccccc3)OC(=O)[C@H]1[C@@H]2C(N)=O	13.8	7.2
Cn1cnc(S(=O)(=O)N[C@H]2C=C[C@H](CC(=O)NCC3CC3)O[C@H]2CO)c1	3.0	3.4
COCC(=O)Nc1ccc2c(c1)OC[C@H](C)N(CC1CCCCC1)C[C@@H](C)[C@H](OC)CN(C)C2=O	-14.4	-2.0
N#C[C@H]1[C@H](c2ccc(C3=CCCC3)cc2)[C@@H](CO)N1C(=O)NC1CCCC1	-11.8	-19.4

# Screens: PubChem, Broad Institute
